Menin-MLL FL inh: qHTS Assay for Inhibitors Targeting the Menin-MLL Interaction in MLL Related Leukemias: Competition With Fluorescein Labeled MLL-derived Peptide. FP activity change, % at 61.4 µM. 290,000 tested, under 10 active. Fluorescence polarization, fluorescein-MLL peptide displacement from menin. AID 1766, 2009; inconclusive = falling polarisation curve, or a change in total fluorescence; inactive = total fluorescence flat and polarisation flat or rising; no compound was filed as active; the % refers to the polarisation; negative = inhibition;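 further: % of control where 0% means no effect; inhibitors lower the polarisation; unlabelled MLL peptide was the positive control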
TRPML1 agonist: qHTS for Agonists of the Human Mucolipin Transient Receptor Potential 1 (TRPML1); TRPML1-expressing cells, Ca2+ dye fluorescence, FDSS; host cell line not named in the record; reference of the full effect not given here; activation, % (test concentration not listed); hit rate 0.12% among 410,000; AID 624414, 2012; in the data active = activation above about 50%; inconclusive = about 30% to 50%; inactive = below about 30%; further: 0% is about no effect; the text of the record puts the active cut at 80%
Target sequence (Q9GZU1 whole entry, looked up): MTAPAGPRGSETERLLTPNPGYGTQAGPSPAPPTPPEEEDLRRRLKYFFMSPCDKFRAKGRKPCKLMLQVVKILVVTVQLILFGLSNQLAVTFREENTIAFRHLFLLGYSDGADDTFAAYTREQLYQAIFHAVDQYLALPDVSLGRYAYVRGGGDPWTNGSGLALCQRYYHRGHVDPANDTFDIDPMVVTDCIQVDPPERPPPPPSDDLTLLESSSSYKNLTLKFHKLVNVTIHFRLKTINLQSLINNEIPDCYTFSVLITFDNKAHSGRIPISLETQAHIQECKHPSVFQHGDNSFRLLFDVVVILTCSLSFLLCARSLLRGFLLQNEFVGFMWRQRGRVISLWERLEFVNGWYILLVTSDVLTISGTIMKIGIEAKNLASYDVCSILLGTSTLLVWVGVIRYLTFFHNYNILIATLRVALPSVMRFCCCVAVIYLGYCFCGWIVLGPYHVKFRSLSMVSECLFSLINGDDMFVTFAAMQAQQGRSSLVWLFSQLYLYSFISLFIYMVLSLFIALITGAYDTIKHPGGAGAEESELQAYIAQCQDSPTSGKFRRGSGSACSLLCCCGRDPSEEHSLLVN
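Calcium fluorescence on an FDSS kinetic reader gave the read-out. Tet-induced TRPML1-DL cells were plated overnight, dye-loaded (Ca8 with quencher, 45-90 min, room temperature, dark), then read 110 s after compound addition, and again 110 s after 4uM final 54-4 (EC80).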
gsp antagonist: qHTS for Antagonists of gsp, the Etiologic Mutation Responsible for Fibrous Dysplasia/McCune-Albright Syndrome: qHTS; hit rate 0.4% among 340,000; AID 624288, 2012; Potency, µM (titrated, usually from 76.9 µM), without a hit: at the highest dose activity change, negative = inhibition, actives largely listed as inhibitors; gsp-mutant cells, cAMP HTRF, 30 min; control for the full effect not named in the record; active = falling curve of any shape with a large fitted effect; inconclusive = falling curve, mostly with a smaller effect; inactive = flat or rising curve; cell line not stated here;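 further: intracellular cAMP measured with PDE inhibitor Ro 20-1724 present during compound exposure; potency means the concentration at half of the fitted maximal effect; on the % scale 0 is the no-effect control and ±100 the full control effect; nearly all actives have a fitted effect of over 65% in size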
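Measurement of cellular cAMP by homogeneous time-resolved fluorescence following a 30 min compound exposure at 37C. The PDE inhibitor […] was present throughout; the assay buffer was DPBS with 0.05% BSA and 0.005% Tween 20.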
gsp agonist: qHTS for Agonist of gsp, the Etiologic Mutation Responsible for Fibrous Dysplasia/McCune-Albright Syndrome: qHTS. gsp mutant cells, cAMP HTRF, 30 min; control for the full effect not named in the record. hit rate 0.13% among 340,000. AID 624287, 2012. Potency, µM (series often up to 76.9 µM), for the others: top-dose activation (cAMP increase), most hits filed as activators; active = well fitted activation curve with a large enough effect; inconclusive = small, poorly fitted or top-dose-only effect, or another doubt; inactive = no such curve, though single readings can be large or run the other way; cell line not stated here;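 further: phosphodiesterase inhibitor Ro 20-1724 added with compounds to block cAMP breakdown; potency means the concentration at half of the fitted maximal effect; nearly all actives have a fitted effect of over 60% in size; about a fifth of the inactives were tested at one dose only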
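Cells in DMEM/10% FBS with G418 were pretreated with compounds in DMSO plus […] (300 uM stock) for 30 min at 37C. cAMP was measured by HTRF (cAMP-d2 plus anti-cAMP antibody-K) after 30 min at room temperature.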
TRPML1 inh: qHTS for Inhibitors of the Human Mucolipin Transient Receptor Potential 1 (TRPML1); activity change, negative = inhibition, % (no concentration beside the values); Mucolipin-1 (Homo sapiens), Q9GZU1; TRPML1-inducible cells, Ca2+ dye fluorescence, FDSS; hits give low values; inhibition of EC80 agonist-evoked calcium signal; hit rate 0.02% among 390,000; AID 624415, 2012; in the data active means activity change below about -50%; inconclusive means about -30% to -50%; inactive means above about -30%;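 further: stimulus is agonist 54-4 at its EC80 concentration; on the % scale 0 is the no-effect control and ±100 the full control effect; compound concentration not given in the record; the text of the record puts the active cut at -80%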
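Tet-induced TRPML1-DL cells loaded with Ca8 no-wash calcium dye were read kinetically on FDSS. Compound addition was followed by EC80 agonist 54-4 (4 uM final); inhibition was read over 110 s.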
ClpP mod: qHTS Assay for Activators of ClpP | ATP-dependent Clp protease proteolytic subunit (Bacillus subtilis (strain 168)), P80244 | AID 651965, 2013 | purified B. subtilis ClpP, FRET peptide cleavage, 20 min | hit rate 1.9% among 340,000 | Potency, µM (top dose mostly 57.5 µM), for the others: top-dose activity change, negative = active; active = well fitted falling curve with a large enough effect; inconclusive = small, poorly fitted or top-dose-only effect; inactive = no such curve, though single readings can be large or run the other way; further: potency means the concentration at half of the fitted maximal effect; the source files actives as falling curves though it sought activators and does not explain the sign; nearly all actives have a fitted effect of over 65% in size; many hits overshoot -100%
Target sequence (P80244 whole entry, looked up): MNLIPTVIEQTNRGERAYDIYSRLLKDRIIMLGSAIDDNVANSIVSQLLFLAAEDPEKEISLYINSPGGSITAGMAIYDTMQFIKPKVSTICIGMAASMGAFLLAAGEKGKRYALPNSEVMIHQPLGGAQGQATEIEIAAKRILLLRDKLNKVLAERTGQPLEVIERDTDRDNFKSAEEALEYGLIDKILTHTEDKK
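FRET quenching reversal measured ClpP activation: 10 microg/mL B. subtilis ClpP at pH 8 with the FRET-FV decapeptide, read at 430 nm after 320 nm excitation. The 20-min minus 0-min signal was scaled between DMSO/no-enzyme wells and ADEP (5.8 microM final).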
* hit, by the source's call; ? = inconclusive; / = no result given; & = joins results of further samples; [ ] = another dose, or the depositor's remark.

SMILES	Menin-MLL FL inh	TRPML1 agonist	gsp antagonist	gsp agonist	TRPML1 inh	ClpP mod
[O-]/C(=C(\C(=S)NCCN1CCOCC1)[n+]1ccccc1)c1ccc(Cl)s1	4.3	1.5	-5.8%	?	25.4	/
CC(Sc1nc(-c2ccccc2)nc2c1COC(C)(C)C2)C(=O)N1CCOCC1 (configuration not stated)	8.8	-0.1	13.3%	-9.6%	0.0	-3.5%
Clc1ccc(-c2nc3ncccn3c2Nc2ccc3c(c2)OCCO3)cc1	6.1	-0.8&-0.7	-7.4%	2.2%	32.2&-0.2	0.3%&0.9%
O=C(COc1ccc2oc3c(c2c1)CCCC3)Nc1ccc(Br)cc1	/	0.1	/	/	-10.9	-0.6%
CN(CC(=O)Nc1cccc(S(=O)(=O)N2CCCC2)c1)CC(=O)Nc1ccc(F)c(F)c1F	/	-0.2	3.1%	9.0%	-6.3	-7.2%
O=C(O)c1ccc(O)c(O)c1	4.5	/	5.9%	/	/	-1.3%
O=C(O)CN1C(=O)C2C3CC(C2C1=O)C1C(c2ccccc2)c2sc(=O)[nH]c2SC31 (configuration not stated)	0.3	2.0	2.7%	-23.0%	15.3	2.2%
O=C(c1ccncc1)N1CCN(c2ccc3ccccc3n2)CC1	-0.5	-0.3	4.9%	-6.1%[15.4 µM]	-11.4	-1.2%
O=C1Nc2ccc([N+](=O)[O-])cc2OC1CCN1CCN(c2ccccc2)CC1 (configuration not stated)	5.2	-0.2	-18.7%	3.7%	15.8	/
CC1=CC(C)(C)N2C(=O)C3(NCCc4c3[nH]c3ccccc43)c3cc(C)cc1c32 (configuration not stated)	1.8	/	-7.9%	-66.4%[inhibitor]	/	0.3%
Cc1cc(CNC(=O)COC(=O)c2ccc(Cl)c(N)c2)cc(C)c1O	/	1.0	4.6%	7.0%[15.4 µM]	6.6	/
c1ccc(SCc2nc(-c3cccnc3)no2)cc1	0.7	-1.7	5.1%	1.1%	12.2	0.7%
O=C(CN1C(=O)NC2(CCCCC2)C1=O)Nc1ccccc1Cl	-3.5	0.1	5.0%	-121.6%	27.4	-1.0%
CCCCOC(=O)Nc1ccc(C(C)C)cc1	-0.9	10.6	-23.6%	1.1%	-21.4	-1.4%
Cc1cc(C)cc(OCC(=O)OCC(=O)NC2CC2)c1	/	-0.9	-5.8%	-2.0%	-0.2	/
CCN(C(=O)c1cccc(F)c1)c1ccccc1C	-0.6	-1.1	-12.5%	-27.4%	1.2	-2.1%
COC(=O)C1CC(=O)N(CCc2c[nH]c3ccccc23)C1 (configuration not stated)	-4.7	-0.3	-6.6%	-3.8%	-1.0	0.0%
N#Cc1ccccc1OCC(=O)Nc1nc(-c2ccccn2)cs1	/	-0.3	/	-0.2%	-8.1	3.9%
COc1cc(OC)cc(C(=O)Nc2nc3ccccc3[nH]2)c1	2.5	-0.6	-4.6%	-1.1%	-4.3	-2.5%
Cc1nc(=O)c(-c2ccccc2)c(C)n1CCCO	-1.0	2.2	5.2%	21.5%	3.4	-2.3%
Cc1ccc(Oc2nsnc2N2CCOCC2)cc1	3.5	0.0	-0.9%	-54.8%[inhibitor]	-6.3	-1.2%
CCc1ccc(N(CC(=O)Nc2sc3c(c2C(=O)OC)CCCC3)S(C)(=O)=O)cc1	1.1	-0.9	4.2%	-20.2%	2.4	?
Cc1cc2ccccc2c(=O)n1CC(=O)NCCC1=CCCCC1	6.1	0.6	12.6%	1.1%[15.4 µM]	-6.5	?
COc1cccc(NC(=O)c2oc3ccc(S(=O)(=O)N(C)C4CCCCC4)cc3c2C)c1	/	2.6	/	/	-8.7	25.1µM*
COc1ccc(C)cc1NC(=O)COCc1cc(-c2ccc(F)cc2)on1	/	1.2	/	/	20.9	0.1%
Cc1c(CC(=O)O)c(=O)oc2cc3occ(-c4ccc(F)cc4)c3cc12	2.2	-0.6	-18.4%	14.8%[15.4 µM]	2.8	1.4%
C[C@H](NC(=O)C1CCN(S(=O)(=O)c2ccccc2)CC1)C(=O)NCc1cccc(C(F)(F)F)c1	/	-1.1	-5.3%	-57.0%[inhibitor]	4.4	-0.2%
COc1ccc(CNC(=O)c2cccc3c(-c4ccc(F)c(F)c4)coc23)cc1OC	/	-0.5	/	/	-24.0	-13.6%
CC(=O)c1cccc(-c2ccnc3c2CC(C(=O)Nc2cccc(NS(C)(=O)=O)c2)O3)c1 (configuration not stated)	/	0.5	/	/	4.6	-0.3%
CCN(Cc1ccc(O)cc1)CC1CCCN(CCc2cccc(F)c2)C1 (configuration not stated)	-3.0	0.2	3.5%	-22.8%	-10.6	0.2%
COc1ccccc1CNC(=O)C(C)Sc1ccc(C)cc1 (configuration not stated)	1.1	1.7	1.4%	2.0%[15.4 µM]	8.8	/
Nc1ccccc1Nc1ccccc1	?	7.4	1.6%	-15.9%	-9.3	28.2µM*
CCNc1nc(NCC)n2c(SCC(=O)Nc3ccc(C)c(C)c3)nnc2n1	/	2.8	-8.3%	11.3%[15.4 µM]	16.9	/
CC1(Cc2ccc(Cl)cc2)C(=O)Nc2ccc(S(=O)(=O)NC3CCCCC3)cc21 (configuration not stated)	/	0.2	/	/	-9.1	-0.9%
Cc1ccc(C(C)C)c(O)c1C(=O)O	/	0.8	-3.8%	/	9.3	-15.9%
O=C(/C=C/[C@H]1O[C@@H](n2cnc3c(NC(=O)c4ccccc4)ncnc32)[C@H](O)[C@@H]1O)NCC1CCCCC1	/	-0.4	/	/	12.0	0.1%
COc1cc(O)c(C(CC(=O)N2CCOCC2)c2ccc(N(C)C)cc2)c(OC)c1 (configuration not stated)	0.0&2.7	1.1&-0.6	6.9%	/	-7.2&-1.3	0.7%
O=c1cc(N2CCCCC2)c(-c2ccccc2)nn1Cc1cccc(F)c1	-0.6	1.5	?	-25.9%	19.7	-1.3%
O=C(CCCn1c(SCC(=O)c2ccc(F)cc2)nc2ccccc2c1=O)NCc1ccco1	-0.1	0.5	-2.8%	?	7.3	-0.6%
COc1ccc(OC)c(CCNC(=O)c2c(C)oc3ncn(CC(C)C)c(=O)c23)c1	/	0.4	/	/	-13.4	0.6%
CCOCC(=O)Nc1c(C(=O)Nc2ccc3c(c2)OCO3)oc2ccccc12	-1.3	-0.3	-25.0%	?	16.0	0.0%
O=C(NCc1ccccc1)c1cc[n+](CC(=O)c2cccs2)cc1	2.4	0.4	-10.2%	15.2%	-13.9	/
COc1ccc(Nc2nc3cc(Cl)c(Cl)cc3n3cnnc23)cc1Cl	/	0.6	/	/	-10.3	0.3%
Cc1ccc(NC(=O)CSc2nc3ccc(NC(=O)c4cccs4)cc3s2)cc1	/	-0.5	/	/	1.3	?
Cc1ccc(S(=O)(=O)N2CCCc3cc(NC(=O)c4ccc(C(C)(C)C)cc4)ccc32)cc1	/	-0.4	/	/	1.2	-10.7%
CCc1ccc(/C=C2\SC(N3CCCC3)=NC2=O)cc1	-0.2	0.2	?	-6.3%[15.4 µM]	3.8	/
CCOc1ccccc1NC(=O)c1ccc(CN2CCc3ccccc3C2)cc1	9.0	3.0	-1.8%	3.2%[15.4 µM]	-6.9	1.3%
CC(C)=C(NC(=O)c1ccccc1)C(=O)NCCCC(=O)O	-1.4	-0.5	9.2%	-5.6%	-3.5	-2.4%
Cc1c(-c2ccccc2)c(=O)oc2c(CN3CCCC3)c(O)ccc12	/	-1.0	/	/	11.9	3.9%
Cc1ccc(-n2c(Cc3cccs3)nnc2SCC(=O)Nc2ccc(S(N)(=O)=O)cc2)cc1	-3.0	1.7	-18.0%	8.6%	20.2	-2.0%
CN(C)/C=C/C(=O)c1cnc(-c2ccccn2)s1	7.1	0.0	-7.8%	11.8%[15.4 µM]	-9.0	/
CCN(CC)S(=O)(=O)c1ccc(C)c(NC(=O)COC(=O)CCC(=O)c2cccs2)c1	/	2.7	-6.0%	0.1%	46.1	2.1%
O=C1CCCCN1CCC(=O)N1CCCC(N2CCN(c3ccccc3)CC2)C1 (configuration not stated)	/	-0.6	18.9%	2.7%	-11.6	-0.7%
COc1ccccc1OCCNC(=O)c1ccc2c(c1)CCC2	1.5	-1.2	-0.1%	1.8%[15.4 µM]	-16.0	-6.5%
O=C(CCN1C(=O)/C(=C/c2ccccc2)SC1=S)Nc1cccnc1	-6.3	-1.7	?	-8.5%[15.4 µM]	-7.0	1.0%
COc1cccc2cc(-c3nc(-c4ccc(C)cc4)c(C)s3)c(=O)oc12	/	-0.1	/	/	7.7	-5.6%
COc1ccc(S(=O)(=O)N2CCCCC2)cc1C(=O)N1CCCCCC1	/	-0.1	-3.9%	-9.1%	-16.4	14.1µM*
CCOc1ccc(N=C(C)c2ccccc2O)cc1	-2.6	-0.4	-8.0%	-1.2%[15.4 µM]	11.6	-6.9%
COc1ccccc1/C=C/C=N/N1CCN(Cc2cccc3ccccc23)CC1	0.4	0.3	-15.9%	-8.9%	-2.9	3.7%
O=C(COc1cccc(C(F)(F)F)c1)Nc1cccc(S(=O)(=O)NC2=NCCCCC2)c1	/	1.0	-26.5%	-50.5%[inhibitor]	-1.7	2.9%
Next section:
SMILES	Menin-MLL FL inh	TRPML1 agonist	gsp antagonist	gsp agonist	TRPML1 inh	ClpP mod
CSc1ccc(CCNS(=O)(=O)c2csc(C(N)=O)c2)cc1	/	-0.9	2.4%	-2.2%	-0.1	-2.0%
COc1ccc(OCC(=O)Nc2ccccc2O)cc1	0.3	-0.6	-5.8%	-23.0%	72.3	-0.9%
Clc1ccc(OCCn2ccnc2)c(Br)c1	3.2	-1.2	-6.6%	0.0%	0.7	-1.3%
CCN(CC)S(=O)(=O)c1ccc2[nH]cc(C(=O)NC3CC3)c(=O)c2c1	-2.4	1.5	-21.1%	?	10.0	-27.0%
Cc1cc(NS(=O)(=O)c2ccc(NC(=O)CNS(=O)(=O)c3ccccc3)cc2)nc(C)n1	/	0.4	4.7%	-2.2%[15.4 µM]	-3.3	-2.6%
COc1ccccc1OCCCn1c(=O)sc2ccccc21	0.3	0.5	-1.5%	-37.1%	53.0	-0.7%

Bioassay records deposited in PubChem BioAssay by National Center for Advancing Translational Sciences (NCATS).
